S aureus helic = inhibitors of S. aureus replicative helicase, primary screen, biochemical, fluorescence unwinding readout. AID 485395, 2010. actives 0.05% (n = 120,000). inhibition, %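 (tested at about 80 µM)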. purified S. aureus helicase, fluorescence unwinding assay; about half of the hits fall short of the stated cut. replicative DNA helicase (DnaC/DnaB), Staphylococcus aureus;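 active means both duplicates at 50% or more, or one of them with a favoured structure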;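 further: 0% = mean of negative control wells and 100% = mean of positive control wells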
MgrA-DNA mod = S. aureus MgrA activity modulators, primary screen, biochemical, S. aureus Newman, fluorescence polarization; MgrA-DNA binding; inhibition, %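 (about 10 µg/mL by stock and volumes)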; actives 0.13% (n = 84,000); AID 602314, 2012;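 active means above 50% in either of two replicates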;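 further: 0% = protein plus DNA without compound and 100% = DNA alone without protein; higher means less MgrA bound to DNA so lower polarization; one replicate is shown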
* = called active by the depositor; & = joins results of further samples. This is a subset; count on the stated rates, not on these rows.

`CN(Cc1cccc(Cl)c1Cl)C(=O)c1cc(Cl)ccn1` gave S aureus helic -5.
Screening CCN1C(=O)/C(=C\c2ccc(NC(=O)c3ccccc3Br)cc2)SC1=S returned S aureus helic -164 and MgrA-DNA mod -9.2.
Screening CCCc1cc(=O)c2c(=O)n(-c3ccccc3)[nH]c2[nH]1 returned S aureus helic -10 and MgrA-DNA mod -2.4.
`CCCC(=O)Nc1ccc(C(=O)NCC2CCCO2)cc1` (configuration not stated) gave S aureus helic 9 and MgrA-DNA mod -0.9.
For CC(=O)Nc1nc2c(Br)cc(Br)cc2c(=O)s1 the results were MgrA-DNA mod 1.2.
`O=C(Nc1ccncc1)OCc1ccccc1` gave S aureus helic 8 and MgrA-DNA mod -0.6.
Screening CCNC(=O)c1ccc(Cl)s1 returned S aureus helic 4 and MgrA-DNA mod -0.8.
For COc1ccc(Cc2nc(-c3ccccc3)n[nH]c2=S)cc1 the results were MgrA-DNA mod -2.0.
OC(c1ccccc1)c1ccccn1 (configuration not stated) was read as S aureus helic 9.
C(=N\N1CCCCC1)/c1ccc2c(c1)OCO2 was read as S aureus helic -10.
For CC1C=Cc2ccccc2N1C(=O)c1ccccc1 (configuration not stated) the results were S aureus helic -14 and MgrA-DNA mod -1.1.
`Cc1ncc(S(=O)(=O)c2ccc(Cl)cc2)c(N)n1` gave MgrA-DNA mod -0.5.
For COC(=O)c1cc(=O)n(-c2ccccc2)c(=Nc2ccccc2)s1 the results were S aureus helic 13 and MgrA-DNA mod -3.0.
For N#Cc1c(-c2ccccc2)nc(N2CCOCC2)[nH]c1=O the results were S aureus helic 11.
`Cc1ccc(C)c(NC(=O)OCC(C)C)c1` gave S aureus helic 19 and MgrA-DNA mod -0.4.
Screening CCOC(=O)c1c(C)n(-c2ccccc2)c2c1cc(OC(=O)c1ccccc1F)c1ccccc12 returned MgrA-DNA mod -2.1.
CN1CC(=O)N(CN2CCN(S(=O)(=O)c3ccc(Br)cc3Cl)CC2)C1=O was read as S aureus helic 7.
`C[n+]1cc(C(=O)NCC[N+](C)(C)Cc2ccccc2)ccc1/C=N/O` gave S aureus helic 11 and MgrA-DNA mod 2.1.
`CCOc1ccc(N2CC(C(=O)N(Cc3ccccc3)c3ccccn3)CC2=O)cc1` (configuration not stated) gave S aureus helic 3 and MgrA-DNA mod -5.4.
CCN(CC)S(=O)(=O)c1ccc(Oc2ccc(Cl)cc2C)nc1 was read as S aureus helic 4.
Screening CCOC(=O)c1c(NC(=O)CC)sc(C(=O)OC)c1C returned S aureus helic 10 and MgrA-DNA mod -1.7.
Screening O=C(O)c1ccc(CNC(=O)c2cocc2C(=O)O)o1 returned S aureus helic -1 and MgrA-DNA mod 4.8.
`CCc1cc(C(c2cccc(OC)c2)N2CCN(CCO)CC2)c(NC(=O)c2ccccc2)s1` (configuration not stated) gave S aureus helic 10.
Screening NC(N)=NC(=O)c1nc(Cl)c(N)nc1N returned MgrA-DNA mod -0.3&5.3&2.1.
Screening C=C(C)Cn1c(CO)nc2ccccc21 returned S aureus helic -10 and MgrA-DNA mod 1.4.
Cc1nnsc1C(=O)NC1CCCCCC1 was read as S aureus helic 4.
For Cc1cc(C)n2nc(-c3ccc(Cl)cc3)cc2n1 the results were MgrA-DNA mod -1.2.
`NC(=O)CSc1nc(N)nc(N)n1` gave S aureus helic 2.
`O=C(Cn1cnc2ccccc2c1=O)c1ccc(Cl)cc1` gave S aureus helic -6 and MgrA-DNA mod 0.9.
For O=C(NCC(F)(F)F)c1ccc2ccccc2n1 the results were S aureus helic -11.
Screening COc1ccc(OCc2nnc(SCC(=O)NCc3ccco3)o2)cc1 returned S aureus helic 19 and MgrA-DNA mod -2.2.
For O=C(NCCOc1nnc(-c2ccccc2)o1)c1ccco1 the results were S aureus helic -17.
For CCN1C(=O)/C(=C\c2ccc(N(C)C)cc2Cl)OC1=S the results were S aureus helic -126 and MgrA-DNA mod 8.2.
Cc1ccc2nc(NC3=NC(CC(=O)O)C(=O)N3)nc(C)c2c1 (configuration not stated) was read as S aureus helic 39.
For Cc1cc(-c2csc(N)n2)c(C)n1CC1COc2ccccc2O1 (configuration not stated) the results were S aureus helic -14.
`O=S(=O)(/N=C(\NNC(=S)Nc1cccc(C(F)(F)F)c1)N1CCCC1)c1ccccc1` gave MgrA-DNA mod 0.1.
For CCC(=O)NC1CCNCC1 the results were S aureus helic 1 and MgrA-DNA mod -1.1.
For O=C(Nc1ccccc1)NC1(C(=O)Nc2ccc(-n3cnnn3)cc2)CCCCC1 the results were S aureus helic 5 and MgrA-DNA mod -1.9.
`CC(C)c1ccc(N2C(=O)C3N=NN(CC(=O)Nc4ccccc4)C3C2=O)cc1` (configuration not stated) gave S aureus helic 18.
Cc1ccc(N(C(=O)COc2ccccc2)C2C=CS(=O)(=O)C2)cc1 (configuration not stated) was read as S aureus helic 14.
`O=C1CCCCC1CNc1cccc(C(F)(F)F)c1` (configuration not stated) gave S aureus helic 6 and MgrA-DNA mod 0.0.
Screening COc1ccc(C2CCCN2C(=O)Nc2ccc(Cl)cc2)cc1OC (configuration not stated) returned S aureus helic -2.
`N#CC(C#N)=C(C(C#N)=C1Nc2ccccc2N1)c1ccccc1F` gave S aureus helic 1 and MgrA-DNA mod 1.8.
CC(=O)NC(Nc1cc(C)ccc1C)C(=O)c1ccccc1 (configuration not stated) was read as S aureus helic 3.
`CCOc1ccc(-n2c(SCC(=O)O)nc3ccccc32)cc1` gave S aureus helic -22.
Screening COC(=O)CC1C(=O)NCCN1S(=O)(=O)c1c(C)c(C)c(C)c(C)c1C (configuration not stated) returned S aureus helic -3.
Screening CCNC(=O)c1ccc(OCc2c(C)noc2C)c(OC)c1 returned S aureus helic 10.
Fc1cccc(/C=N/n2cnnc2)c1 was read as S aureus helic 10 and MgrA-DNA mod 1.3.
For O=C1CCCC2(O)C1C(c1ccc(Cl)cc1Cl)NC(=O)N2Cc1ccccc1 (configuration not stated) the results were S aureus helic 9.
Screening Cc1n[nH]c(C)c1Oc1ccc(Cl)cc1 returned MgrA-DNA mod -2.7.
For COC(=O)c1ccc(OCc2c(C)noc2C)cc1 the results were S aureus helic 11.
Screening CCc1nnc2c(NC)nc3ccccc3n12 returned S aureus helic 12.
For CCc1cc2c3c(c1)C1(C(=O)N3C(C)(C)CC2C)C(C#N)=C(N)N2C(=C1C#N)Nc1ccccc12 (configuration not stated) the results were S aureus helic -4 and MgrA-DNA mod -0.1.
For Cc1ccc(Nc2nc(N)nc(CSc3cc(C)c4ccccc4n3)n2)cc1 the results were S aureus helic -49.
`Cc1ccc(S(=O)(=O)NN=C(Cn2nnc3ccccc32)Cn2nnc3ccccc32)cc1` gave S aureus helic -5.
COc1ccc(OCCN2CCN(C3CC(=O)N(CCC(C)C)C3=O)CC2)cc1 (configuration not stated) was read as S aureus helic -15.
COC(=O)c1ccc(C(=O)Nc2ccc3nc(C4CCCCC4)[nH]c3c2)cc1 was read as S aureus helic 15 and MgrA-DNA mod 0.0.
`Cc1ccc(SCC(=O)NC2CC2)cc1` gave S aureus helic 3 and MgrA-DNA mod -1.2.
CC1(c2ccccc2)CC1(Br)Br (configuration not stated) was read as MgrA-DNA mod -0.8.
`CC(=O)CC1(O)C(=O)N(CN2CCOCC2)c2ccccc21` (configuration not stated) gave MgrA-DNA mod 1.7.
For Cc1cc(C(=O)N=C(N)c2ccc(Cl)cc2)no1 the results were MgrA-DNA mod -2.0.
CC1=C(C(=O)OCc2ccc3c(c2)OCO3)C(c2ccccc2OC(C)C)NC(=O)N1 (configuration not stated) was read as MgrA-DNA mod 0.4.
Screening CCOC(=O)CSc1ccc2nnc(-c3ccccc3)n2n1 returned MgrA-DNA mod -1.6.
Screening CCC1(CC)C(=O)NC(=O)N=C1N returned S aureus helic 9 and MgrA-DNA mod -1.5.
O=C(O)C1C2C=CC(O2)C1C(=O)Nc1ccc(S(=O)(=O)NCCc2ccccc2)cc1 (configuration not stated) was read as S aureus helic 6 and MgrA-DNA mod 2.0.
Screening CC(Sc1nc2ccccc2[nH]1)C(=O)Nc1ccc(S(N)(=O)=O)cc1 (configuration not stated) returned S aureus helic 2 and MgrA-DNA mod -3.3.
For CN1CCN(c2ccc(NC(=O)c3ccccc3)cc2)CC1 the results were MgrA-DNA mod -0.8.
`COc1cc(N=C(N)N=C(N)N)cc(OC)c1` gave MgrA-DNA mod -0.2.
Screening Cc1ccc(-c2nnc(Nc3ccccc3)c3ccccc23)cc1S(=O)(=O)NCc1ccccn1 returned S aureus helic 12 and MgrA-DNA mod 3.0.
For COCC(=O)Nc1cc(F)cc(F)c1 the results were S aureus helic -4 and MgrA-DNA mod -0.5.
CC1(NC(=O)CCN2c3ccccc3Sc3ccccc32)CCS(=O)(=O)C1 (configuration not stated) was read as S aureus helic 17.
Screening C=CCN1C(=O)/C(=c2\sc3n(c2=O)C(c2ccccc2Cl)C(C(=O)OC)=C(C)N=3)c2ccccc21 (configuration not stated) returned MgrA-DNA mod 2.3.
`CCOC(=O)c1nnn(-c2cc(Cl)cc(Cl)c2)c1Sc1ccccn1` gave MgrA-DNA mod -1.6.
`CN1C2CCC1CC(OC(=O)C(CO)c1ccccc1)C2` (configuration not stated) gave MgrA-DNA mod 4.1&2.0.
Screening CCC(Sc1nc2ccccc2n1CC)C(=O)O (configuration not stated) returned S aureus helic 9 and MgrA-DNA mod -1.9.
Screening Oc1ccc(-c2onc3ccc(Cl)cc23)cc1 returned S aureus helic -215.
For COC(=O)C(C#N)(Cc1ccccc1)Cc1ccccc1 the results were MgrA-DNA mod -2.5.
CC(C)(C)C(=O)NC1CCN(CC(=O)N(C2CCCCC2)C2CCCCC2)CC1 was read as S aureus helic 5 and MgrA-DNA mod 0.7.
COC(=O)c1ccc(N2Cc3cccc(OC)c3Oc3ncccc32)s1 was read as S aureus helic -23.
For CN(C)CCNc1cnn(-c2ccccc2)c(=O)c1Cl the results were S aureus helic 4 and MgrA-DNA mod 1.5.
For NC(=O)N1CCCC1C(=O)Nc1ccc2c(c1)CCC2 (configuration not stated) the results were S aureus helic 11.
O=C(CCN1C(=O)/C(=C\c2ccco2)SC1=S)NCCc1ccccc1 was read as S aureus helic -6.
CCOc1ccc(/C(O)=C2/C(=O)C(=O)N(CCN3CCOCC3)C23C(=O)N(C)c2ccccc23)cc1 (configuration not stated) was read as S aureus helic -27.
Screening Cn1c(SCC(=O)c2ccc3[nH]c(=O)oc3c2)nnc1C1COc2ccccc2O1 (configuration not stated) returned S aureus helic 8.
Screening Cc1cc(C)n(CCCO)c(=O)c1C#N returned S aureus helic 17 and MgrA-DNA mod -1.1.
For CCn1c(=O)cc(SCC(=O)N2CCC(C)CC2)c2ccccc21 the results were S aureus helic -24.
For COc1cccc(NC(=O)CN(C)C(C)C(=O)Nc2cc(Cl)ccc2OC)c1 (configuration not stated) the results were S aureus helic -18.
`COC(=O)c1c(C)[nH]c(C(=O)CSc2nnc3cc(C)c4ccccc4n23)c1C` gave S aureus helic 7 and MgrA-DNA mod 5.6.
N/N=c1\nc2[nH]n(-c3ccccc3)c(=O)c2c2n1CCC2 was read as S aureus helic 0.
For CCCCSc1nnc2c(n1)OC(/C=C/c1ccccc1[N+](=O)[O-])Nc1ccccc1-2 (configuration not stated) the results were MgrA-DNA mod 1.3.
CCOC(=O)c1cc(-c2nc(C(=O)NN)cs2)c(C)nc1C(F)(F)F was read as MgrA-DNA mod -0.8.
`Cn1cc(SCC(=O)NCc2ccco2)c2ccccc21` gave S aureus helic 0.
Screening Cc1c(NC(=O)C2CCCCN2S(=O)(=O)c2ccc(Cl)cc2)c(=O)n(-c2ccccc2)n1C (configuration not stated) returned S aureus helic 2.
For COC(=O)c1ccc(CN2c3cccc4cccc(c34)S2(=O)=O)o1 the results were S aureus helic 11.
Screening O=C1CCN(S(=O)(=O)c2cccs2)CCN1 returned S aureus helic 9.
Cc1nn(C)c(Cl)c1S(N)(=O)=O was read as S aureus helic 8.

For convenience, part of the list above:
For COC(=O)C(C#N)(Cc1ccccc1)Cc1ccccc1 the results were MgrA-DNA mod -2.5.
CC(C)(C)C(=O)NC1CCN(CC(=O)N(C2CCCCC2)C2CCCCC2)CC1 was read as S aureus helic 5 and MgrA-DNA mod 0.7.
COC(=O)c1ccc(N2Cc3cccc(OC)c3Oc3ncccc32)s1 was read as S aureus helic -23.
For CN(C)CCNc1cnn(-c2ccccc2)c(=O)c1Cl the results were S aureus helic 4 and MgrA-DNA mod 1.5.
For NC(=O)N1CCCC1C(=O)Nc1ccc2c(c1)CCC2 (configuration not stated) the results were S aureus helic 11.
O=C(CCN1C(=O)/C(=C\c2ccco2)SC1=S)NCCc1ccccc1 was read as S aureus helic -6.
CCOc1ccc(/C(O)=C2/C(=O)C(=O)N(CCN3CCOCC3)C23C(=O)N(C)c2ccccc23)cc1 (configuration not stated) was read as S aureus helic -27.
Screening Cn1c(SCC(=O)c2ccc3[nH]c(=O)oc3c2)nnc1C1COc2ccccc2O1 (configuration not stated) returned S aureus helic 8.
Screening Cc1cc(C)n(CCCO)c(=O)c1C#N returned S aureus helic 17 and MgrA-DNA mod -1.1.
For CCn1c(=O)cc(SCC(=O)N2CCC(C)CC2)c2ccccc21 the results were S aureus helic -24.
For COc1cccc(NC(=O)CN(C)C(C)C(=O)Nc2cc(Cl)ccc2OC)c1 (configuration not stated) the results were S aureus helic -18.
`COC(=O)c1c(C)[nH]c(C(=O)CSc2nnc3cc(C)c4ccccc4n23)c1C` gave S aureus helic 7 and MgrA-DNA mod 5.6.
N/N=c1\nc2[nH]n(-c3ccccc3)c(=O)c2c2n1CCC2 was read as S aureus helic 0.
For CCCCSc1nnc2c(n1)OC(/C=C/c1ccccc1[N+](=O)[O-])Nc1ccccc1-2 (configuration not stated) the results were MgrA-DNA mod 1.3.
CCOC(=O)c1cc(-c2nc(C(=O)NN)cs2)c(C)nc1C(F)(F)F was read as MgrA-DNA mod -0.8.
`Cn1cc(SCC(=O)NCc2ccco2)c2ccccc21` gave S aureus helic 0.
Screening Cc1c(NC(=O)C2CCCCN2S(=O)(=O)c2ccc(Cl)cc2)c(=O)n(-c2ccccc2)n1C (configuration not stated) returned S aureus helic 2.
